Sfp PPTase inh: qHTS Assay for Inhibitors of Bacillus subtilis Sfp phosphopantetheinyl transferase (PPTase) | 4'-phosphopantetheinyl transferase ffp (Bacillus subtilis), Q9F4F7 | Biochemical Sfp PPTase activity, qHTS | Potency, µM, for inactives: max response, negative = inhibition, hits mostly inhibitors | hit rate 3.5% among 310,000; active means well fitted inhibition curve with a large enough effect; inconclusive means small, poorly fitted or top-dose-only effect, or another doubt; inactive means no such curve, though single readings can be large or run the other way;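 further: the enzyme is Sfp with the accession as filed and its product quenches rhodamine fluorescence; potency means the concentration at half of the fitted maximal effect; 0% = enzyme reaction without inhibitor and -100% = no enzyme wells; top concentration of the series not given in the record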
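With Hepes-Na pH 7.6 buffer containing 10 mM MgCl2, Sfp (15 nM) modified BHQ-2-YbbR (12.5 uM) using rhodamine-CoA (5 uM). Two reads 30 minutes apart at 525/598 nm yielded each well's rate.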
PINK1 expr mod: A Quantitative High throughput Screen to Identify Chemical Modulators of PINK1 Expression. hit rate 0.2% among 410,000. PINK1 immunofluorescence, high-content cytometry, 24 h. Potency, µM (doses to about 76.6 µM), for the others: top-dose activation (PINK1 increase), hits mostly activators; active = well fitted activation curve with a large enough effect; inconclusive = small, poorly fitted or top-dose-only effect; inactive = flat fitted curve, though single readings scatter; cell line not stated here;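 further: potency means the concentration at half of the fitted maximal effect; % of control where 0% means no effect; nearly all actives have a fitted effect of over 65% in size; a mitochondrial uncoupler was the plate control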
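Compound titrations (5 concentrations, 24 h) on a stable cell line; DMSO and CCCP controls. Endpoint: fixed-cell PINK1 immunofluorescence with mitochondrial, cell and nuclear markers, scanned by microplate cytometer.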
D2 ag: Beta-Arrestin HTS for Positive Allosteric Modulators of the Human D2 Dopamine Receptor: Agonists; D(2) dopamine receptor (Homo sapiens), P14416; DiscoveRx PathHunter D2 beta-arrestin, luminescence, 90 min; 100% = 57 uM dopamine signal; hit rate 0.084% among 360,000; activation, % (test concentration not listed); in the data active = activation above about 40%; inconclusive = about 15% to 40%; inactive = below about 15%; further: compound concentration not given in the record; the text of the record calls up to 30% inactive
Target sequence (P14416 whole entry, looked up): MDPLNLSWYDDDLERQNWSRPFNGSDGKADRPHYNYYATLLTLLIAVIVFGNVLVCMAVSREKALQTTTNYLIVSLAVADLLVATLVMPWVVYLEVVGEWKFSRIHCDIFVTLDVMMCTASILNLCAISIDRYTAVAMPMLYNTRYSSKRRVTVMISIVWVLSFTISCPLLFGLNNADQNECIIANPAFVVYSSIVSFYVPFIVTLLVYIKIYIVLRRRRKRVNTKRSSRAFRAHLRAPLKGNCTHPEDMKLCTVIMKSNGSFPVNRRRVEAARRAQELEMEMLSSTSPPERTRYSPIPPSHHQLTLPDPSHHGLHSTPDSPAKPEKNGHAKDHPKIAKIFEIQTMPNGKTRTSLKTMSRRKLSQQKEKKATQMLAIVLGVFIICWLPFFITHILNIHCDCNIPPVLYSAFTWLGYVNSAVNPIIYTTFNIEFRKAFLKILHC
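Agonist mode: compounds alone added to overnight-plated D2 PathHunter cells for 90 min at 37 C, with 57 uM final dopamine (EC100) defining full response. Beta-arrestin recruitment detected by chemiluminescent reagent, read after 1 h at ambient temperature.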
CtBP-E1A blk: qHTS Assay for Inhibitors of the CtBP/E1A Interaction | CtBP / adenovirus E1A interaction (AlphaScreen) | AlphaScreen GST-E1A/His-CtBP binding, 1536-well; hits give low values; control for the full effect not named in the record | activity change, % (concentration not given with the values) | hit rate 0.49% among 340,000; in the data active means activity change below about -65%; inconclusive means about -30% to -65%; inactive means above about -30%; further: on the % scale 0 is the no-effect control and ±100 the full control effect
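Protein mix (5X: 125 nM each GST-E1A, His-CtBP) was incubated with pinned compound 2 h at 37 deg C in dark, in 50 mM Tris pH 8.0 buffer with 300 mM NaCl. Glutathione donor and nickel acceptor beads followed; AlphaScreen signal read after 1 h.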
D2 PAM: Beta-Arrestin HTS for Positive Allosteric Modulators of the Human D2 Dopamine Receptor: Potentiators | DiscoveRx D2 beta-arrestin cells, luminescence, 90 min; 100% = 57 uM dopamine signal | potentiation, % (test concentration not listed) | AID 624464, 2012 | hit rate 0.23% among 360,000 | D(2) dopamine receptor (Homo sapiens), P14416; active = potentiation of 50% or more; inconclusive = 30% to 50%; inactive = 30% or less;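 further: compound concentration not given in the record; tested on top of an EC20 dose of dopamine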
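PathHunter beta-arrestin assay in DiscoveRx D2 cells. Compounds were added with an EC20 of dopamine (50 nM final) for 90 min at 37 deg C. Luminescence was read 1 h after detection reagent, with 57 uM dopamine as the EC100 control.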
TRPV1 PAM: HTS Assay for Compounds that Act as Potentiators of the Vanilloid Receptor 1. Transient receptor potential cation channel subfamily V member 1 (Homo sapiens), Q8NER1. TRPV1-expressing cells, Fluo-8 calcium influx, capsaicin EC20 potentiation; host cell line not named in the record; control for the full effect not named in the record. potentiation, % at 8.33 µM. hit rate 0.02% among 320,000. AID 540277, 2011; active means potentiation above 80%; inconclusive means 30% to 80%; inactive means below 30%; further: 0% is about no effect
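Fluo-8 calcium influx in TRPV1-expressing cells, kinetic read (ex 480/em 520 nm). Compound added and read 3 min for agonist activity, followed by capsaicin at EC20 final and 2 min further read for enhancement.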
Six1-Eya2 inh: qHTS Assay for Inhibitors of the Six1/Eya2 Interaction. Homeobox protein SIX1 (Homo sapiens) + Protein phosphatase EYA2 (Homo sapiens), …. AlphaScreen GST-Six1/His-Eya2 binding, biochemical; hits give low values; control for the full effect not named in the record. activity change, % (no concentration beside the values). hit rate 0.56% among 360,000. AID 651725, 2012; in the data active = activity change below about -65%; inconclusive = about -30% to -65%; inactive = above about -30%; further: on the % scale 0 is the no-effect control and ±100 the full control effect; compound concentration not given in the record
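Compounds are tested against tagged Six1 and Eya2 proteins bridged by glutathione donor and nickel acceptor beads; after a one-hour incubation at 37 °C without light, AlphaScreen emission is recorded.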
Active calls of the source: *; ? = inconclusive; . = not tested or not shown; [ ] = another dose, or the depositor's remark. Compounds were not picked by outcome; about 3.7% have a hit in one of these screens.

Results follow in this order: Sfp PPTase inh	PINK1 expr mod	D2 ag	CtBP-E1A blk	D2 PAM	TRPV1 PAM	Six1-Eya2 inh
COc1ccc(CNC(=O)CCn2cccc2)cc1
 : 0.1%	1.0%	-3.2	-5.5	-1.3	-13.7	-6.1
COc1ccc(C(=O)N2CCCCC2c2cc(C(=O)Nc3ccc(OC)cc3C)no2)cc1 (stereo unspecified)
 : .	0.3%	-5.1	0.3	-1.8	.	2.9
CC1=C(C(=O)N(C)C)CC(CC(=O)NCc2cccs2)C(=O)N1Cc1ccccc1 (stereo unspecified)
 : .	0.8%	-0.5	-12.9	.	.	-0.3
Cc1ccc(OCc2ccc(C(=O)NCC3CCCO3)cc2)cc1C (stereo unspecified)
 : .	-0.7%	-3.6	.	-8.5	-12.4	-4.8
NC12CC3CC(C1)CC(O)(C3)C2
 : 12.7%	?	0.2	0.0	4.2	-8.3	20.0
CCn1cc(C(=O)NCC(OC)OC)c(=O)c2cc(S(=O)(=O)N3CCCC3)ccc21
 : 8.1%	0.2%	0.0	0.7	1.3	8.0	1.1
CC(=O)Nc1ccccc1NC(=O)C(F)(F)F
 : 14.6%	0.8%	-1.3	-5.1	-3.6	-9.1	3.0
CCn1cc(C(=O)O)c(=O)c2cc(F)c(N3CCN(C(=S)NC(=O)c4ccccc4C)CC3)cc21
 : 14.8%	-1.3%	-1.5	2.7	-0.3	-2.6	5.6
N#CC(=C(O)COC(=O)c1ccc2c(c1)OCCO2)c1nc2ccccc2[nH]1
 : .	3.4%	1.1	-25.6	3.6	.	-29.5
COc1ccc(CCNC(=O)CCNC(=O)c2ccc(Br)cc2)cc1OC
 : 5.6%	0.8%	0.5	1.6	-2.4	7.9	1.7

Brought forward from above: two entries, then new ones.
Results follow in this order: Sfp PPTase inh	PINK1 expr mod	D2 ag	CtBP-E1A blk	D2 PAM	TRPV1 PAM	Six1-Eya2 inh
N#CC(=C(O)COC(=O)c1ccc2c(c1)OCCO2)c1nc2ccccc2[nH]1
 : .	3.4%	1.1	-25.6	3.6	.	-29.5
COc1ccc(CCNC(=O)CCNC(=O)c2ccc(Br)cc2)cc1OC
 : 5.6%	0.8%	0.5	1.6	-2.4	7.9	1.7
COc1ccc(NC(=S)N/N=C/c2cccn2Cc2ccccc2F)cc1
 : 9.0%	13.0%	-3.6	0.3	-11.1	-2.6	-2.7
CC(C(=O)O)N(c1ccccc1Cl)S(C)(=O)=O (stereo unspecified)
 : .	0.1%	-3.4	.	-9.1	-13.6	8.6
O=C(COc1coc(CN2CCc3ccccc32)cc1=O)N1CCCCC1
 : .	0.9%	-2.8	-7.6	-0.3	?	3.9
Cn1cc(C(=O)N/N=C/C2=C(N3CCOCC3)C(=C/c3ccc([N+](=O)[O-])cc3)/CC2)ccc1=O
 : .	3.3%	1.2	-3.0	-0.9	.	-13.2
Cc1csc(NC(=O)c2cc3c(s2)CCCC3)n1
 : -0.3%	1.4%	-1.5	.	-18.1	-8.6	-2.9
CCSc1nc2c(c(=O)[nH]1)C(C(C)C)C(C#N)=C(N)O2 (stereo unspecified)
 : -3.3%	-0.4%	-1.6	2.4	0.7	-0.3	3.1
Cc1cccc(NC(=S)N2CCN(S(=O)(=O)c3cccc(F)c3)CC2)c1
 : 11.5%	-0.6%	3.0	21.7	9.0	-6.0	-1.8
O=C(CSc1nnc(-c2cccnc2)n1Cc1ccco1)c1ccc(Cl)c(Cl)c1
 : 28.2µM*	-3.5%	0.8	-4.9	-6.9	-15.4	-9.0
COc1ccc(-c2ccc(SCC(=O)c3cccs3)nn2)cc1
 : -0.4%	-2.6%	-0.8	-21.1	0.3	5.9	-1.3
CC(NC(=O)C1CCN(C(=O)[C@@H]2Cc3ccccc3CN2C(=O)OC(C)(C)C)CC1)c1ccccc1 (stereo partly specified)
 : 8.1%	1.4%	-2.5	6.0	-10.4	-4.0	3.4
COc1ccc(/C=N/N(CCC(=O)NC(C)(C)C)C2=NS(=O)(=O)c3ccccc32)cc1
 : -5.6%	0.0%	1.4	-3.5	-0.2	4.6	-10.9
COCCNC(=O)c1ccc2c3n(nc2c1)-c1ccccc1CO3
 : 2.6%	0.9%	-2.2	-3.0	-3.5	?	0.0
S=c1[nH]nc(-c2ccc(Br)cc2)n1Cc1ccccc1
 : 11.1%	2.9%	-9.2	-6.4	0.1	-2.3	-11.9
CN(C)/N=C/c1cn(-c2ccccc2)nc1-c1cccnc1
 : 15.4%	-1.8%	-2.9	-5.7	-6.0	-14.0	-13.0
Cc1ccc(NS(=O)(=O)c2ccc(C(=O)N3CCN(S(=O)(=O)c4ccccc4)CC3)cc2)cc1
 : .	-0.4%	-0.1	2.5	-10.8	-0.3	7.5
C[C@H](c1ccccc1)N1C[C@H](COCc2ccccc2)Oc2cc(N3CCC[C@H]3C(N)=O)ccc2S1(=O)=O
 : .	4.9%	.	-10.3	.	.	6.9
O=C(NNC(=O)c1cccc(Br)c1)C(=O)N1CCCCC1
 : 8.2%	-0.1%	-0.3	.	-7.5	7.6	1.8
CCOc1ccc(CCNC(=O)C(CC)n2nc(C)n3c(cc4sccc43)c2=O)cc1OCC (stereo unspecified)
 : 5.3%	13.5%[38.3 µM]	-4.4	-18.0	-19.3	8.4	-0.1
COc1cc(CNC(=O)c2ccccc2NC(=O)C2=C(C)OCCS2)cc(OC)c1OC
 : 7.2%	-0.2%	0.7	1.4	-3.5	10.1	-6.4
OC(c1ccc(F)c(F)c1)c1ncc(-c2cccc(F)c2)[nH]1 (stereo unspecified)
 : .	1.3%	-3.3	-9.7	-5.0	.	-7.7
C=CCn1c(N)cc(=O)nc1SCC(=O)Nc1ccc(C(=O)OC)cc1
 : 10.4%	0.3%	-1.8	4.1	1.1	6.7	0.7
NS(=O)(=O)c1cccc(NC(=O)CSc2nnc(C3CC3)n2C2CC2)c1
 : .	1.1%	-0.8	14.0	-2.7	-1.0	7.1
COc1ccc(C(=O)/C(C#N)=N/Nc2cccc([N+](=O)[O-])c2)cc1
 : -9.8%	14.1µM*	-2.2	.	-20.1	-0.5	-2.3
COc1ccc(-c2cc(C(F)F)n3ncc(C(=O)Nc4cccc(S(=O)(=O)N5CCOCC5)c4)c3n2)cc1
 : 8.3%	-0.4%	13.5	.	-5.2	4.9	-10.1
CCC(C)n1c(SCC(=O)/C(C#N)=C(\C)N)nc2ccccc2c1=O (stereo unspecified)
 : 4.5%	3.4%	1.5	3.6	-13.1	-16.3	1.7
C[C@@H]1CN([C@@H](C)CO)C(=O)c2cc(Br)cnc2O[C@H]1CN(C)C(=O)NC1CCCC1
 : .	-1.6%	-7.9	5.4	-6.4	.	13.3
CC(C)(C)c1ccc(-c2noc(-c3ccc4c(c3)CCO4)n2)cc1
 : 2.4%	4.7%	-2.5	7.5	0.7	-8.6	6.8
COc1ccc(-n2c3c(cc(C(=O)NNc4ccccc4C)c2=O)C(=O)CC(C)(C)C3)cc1
 : 4.5%	-1.3%	3.0	4.9	-5.4	13.2	5.3
O=C(Cc1ccc(F)cc1)N1CCC(CC2CC(c3cccc(Br)c3)=NO2)(C(=O)NCC2CCCCC2)CC1 (stereo unspecified)
 : 4.6%	-0.2%	-2.1	-10.1	-25.6	5.8	-0.7
CCC(=O)N1CCN(c2nc(CC)nc3sc4c(c23)CCCC4)CC1
 : 4.3%	3.9%	4.1	3.9	-26.5	-20.8	0.4
O=C(NCCc1ccccc1)C1CCCN1S(=O)(=O)c1ccc(F)cc1 (stereo unspecified)
 : .	-0.6%[38.3 µM]	-2.2	10.1	-1.2	.	1.0
COC(=O)/C(=C\c1ccc(O)cc1)c1nc2ccccc2[nH]1
 : 12.0%	0.0%	-5.1	.	-4.9	-0.4	-4.3
CCNC(=O)N1CCC(n2nccc2NC(=O)CCOc2ccccc2)CC1
 : 11.7%	0.5%	3.4	2.9	3.9	1.5	2.8
Cc1ccc(Cc2c(-c3ccc(Br)cc3)nc3ccc(Br)cn23)cc1
 : .	7.5%	1.2	16.7	-2.6	.	0.0
COc1ccccc1CN1CC(C(=O)N2CCOCC2)CCC1=O (stereo unspecified)
 : 23.5%	-0.8%	-3.8	-9.9	-12.7	1.2	0.2
C=CCN1C(=O)C2(OCCCO2)c2cccc(Cl)c21
 : 13.1%	2.8%	-0.5	12.5	2.2	?	0.4
O=c1nc(/C=C/c2cccn2-c2ccc([N+](=O)[O-])cc2)cc(C(F)(F)F)[nH]1
 : ?	0.4%	-5.5	-12.8	-0.3	9.0	-4.3
CN1C(=O)N(C)C2CC1N(C)C(=O)N2C
 : 18.7%	-3.2%[38.3 µM]	-0.2	3.1	-1.4	-1.3	3.4
Cc1ccc(NC(=O)[C@@H]2CCC(=O)N2C2OC(=O)c3ccccc32)cc1Cl (stereo partly specified)
 : 3.2%	-0.6%	-3.3	7.7	-15.7	-11.0	0.9
O=C1Nc2ccc(Cl)cc2/C1=C/C1CC=CCC1 (stereo unspecified)
 : -7.7%	-0.3%	-9.8	-5.5	-25.3	-2.0	0.3
CC(Sc1nnc(-c2ccccc2F)n1C1CC1)C(=O)NC(N)=O (stereo unspecified)
 : 1.6%	-0.2%	-3.4	-12.8	-12.1	-1.9	9.0
Cc1ccc(OCCn2c(C)c(/C=N/n3cnnc3)c3ccccc32)cc1
 : 12.5%	3.6%	2.8	1.6	11.6	-0.9	-2.7
O=C(Oc1ccc2c(=O)c(Oc3ccc4ccccc4c3)coc2c1)c1cccnc1
 : 2.3%	11.0%	-3.1	2.0	-8.1	-5.0	23.9
O=C(NC1CC1)C1=C[C@@H](c2ccc(C(F)(F)F)cc2)C[C@@H](OCc2ccc(CO)cc2)O1
 : .	1.2%	1.8	.	-1.8	.	-3.8
CCCS(=O)(=O)N1CCC(Cc2ccc(OC)cc2)(C(=O)OCC)CC1
 : 23.7%	0.5%	-2.9	.	-16.6	11.5	9.2
CCOC(=O)c1c(-c2ccc(OC)cc2)nc2nonc2c1N
 : 16.7%	-2.1%[38.3 µM]	-2.2	4.1	-9.1	-1.8	6.1

From PubChem BioAssay
